Source: PubChem
Beta2AR agonist = human beta-2 adrenergic receptor agonism by FAP | P07550 | Am2.2-beta2AR cells, FAP receptor internalization, flow cytometry; reference of the scale not given here | response, % (test concentration not listed) | actives 0.43% (n = 340,000);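 active = response above a set limit, near 3 SD of response in nonfluorescent compounds, cut at about 42% in these data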;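 also: stock transfer was 100 nL into about 11 µL; a reference agonist was the positive control; negative values mostly stem from fluorescent compounds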
Target sequence (P07550 whole entry, looked up): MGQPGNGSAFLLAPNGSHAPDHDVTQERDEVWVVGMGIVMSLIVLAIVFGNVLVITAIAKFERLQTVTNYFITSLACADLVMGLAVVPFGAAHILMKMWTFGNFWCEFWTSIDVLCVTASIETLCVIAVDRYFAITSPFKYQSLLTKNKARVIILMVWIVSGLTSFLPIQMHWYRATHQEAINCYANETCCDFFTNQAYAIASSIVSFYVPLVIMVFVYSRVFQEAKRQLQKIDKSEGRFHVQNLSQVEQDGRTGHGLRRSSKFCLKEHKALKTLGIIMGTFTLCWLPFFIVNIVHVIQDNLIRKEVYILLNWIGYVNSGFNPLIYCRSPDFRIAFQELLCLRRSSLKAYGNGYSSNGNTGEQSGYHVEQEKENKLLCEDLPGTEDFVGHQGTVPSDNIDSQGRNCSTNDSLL
UCH37 DUB inh = human UCH37 deubiquitinating enzyme inhibition | Q9Y5K5 | purified proteasome/UCH37, Ub-AMC cleavage fluorescence | inhibition, % (test concentration not listed) | actives 0.33% (n = 330,000);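 active = mean of two replicates above 20%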;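 also: 0% = compound-free wells with enzyme and 100% = wells lacking proteasome; stock transfer was 100 nL into about 20 µL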
Target sequence (Q9Y5K5 whole entry, looked up): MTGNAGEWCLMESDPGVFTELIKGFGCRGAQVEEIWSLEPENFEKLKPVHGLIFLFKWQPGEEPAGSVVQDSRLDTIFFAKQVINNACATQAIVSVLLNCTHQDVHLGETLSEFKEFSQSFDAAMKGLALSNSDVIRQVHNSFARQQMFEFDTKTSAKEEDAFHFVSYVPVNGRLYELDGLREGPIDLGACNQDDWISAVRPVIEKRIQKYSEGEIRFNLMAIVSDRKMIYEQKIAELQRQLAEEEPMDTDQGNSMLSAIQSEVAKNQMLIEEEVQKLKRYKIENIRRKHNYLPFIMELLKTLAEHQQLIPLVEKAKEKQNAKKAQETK
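Schedule: 30 min plus 25 min, room temperature / Material: human UCH37 within purified proteasomes / Technique: AMC fluorescence intensity at 355/460 nm / Buffer or medium: pH 7.4 Tris-HCl (50 mM) with ovalbumin, ATP-MgCl2, DTT / Controls: wells without proteasome as full block, compound-free enzyme plus substrate as uninhibited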
T cruzi repl = T. cruzi replication inhibition. inhibition, % (concentration not given with the values). T. cruzi beta-gal in NIH3T3, luminescence, 90 h. AID 1885. actives 1.4% (n = 300,000);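 active = mean inhibition across valid replicates above about 55%, limit read from the data; inconclusive = mean below that limit but half or more replicates reach it; inactive = mean below it, under half of replicates reach it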;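 also: signal also drops with host cell toxicity which is not excluded here; 0% = plate median of DMSO wells and 100% = zero luminescence signal; higher percent means less beta-gal luminescence so fewer parasites; stock transfer was 50 nL into about 50 µL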
Bfl-1 A1 inh = inhibitors of the anti-apoptotic protein A1, read as caspase activation; MEF A1-2A-BIM cells, Caspase-Glo 3/7 luminescence, 3 h; percent of clofoctol response, vehicle zero; actives 0.066% (n = 330,000); caspase activation, % (test concentration not listed);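 active = over half of replicate activation scores above 10%, or exactly half above 10 with the replicate mean above 10; inconclusive = replicate mean below 10 yet half the replicates above 10; inactive = over half of replicates below 10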;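 also: wells of about 30 µL received 50 nL stock; many hits fall short of the cut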
Beta cell apopt = beta cell apoptosis inhibition | protection from apoptosis, % (test concentration not listed) | INS-1E cytokine-induced death, ATP luminescence, 48 h; percent of positive-control rescue, neutral wells zero | actives 0.8% (n = 300,000) | AID 435005;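 active = all replicates at 75% or more, or half of them and the mean; inconclusive = half reach 75% but not the mean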;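 also: 0% = cytokine-treated negative control wells and 100% = positive control rescue; higher means more ATP so stronger rescue from cytokine killing; wells of about 40 µL received 100 nL stock; the first replicate is given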
RanGTP-Impb inh = disruptors of Ran-importin-beta complex formation – biochemical, FRET, CFP-Ran, YFP-importin-beta, homogeneous, primary screen; inhibition, % (no concentration beside the values); cell-free CFP-Ran/YFP-importin-beta FRET ratio; AID 2216; actives 1.1% (n = 300,000);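 active = most replicates above 15%; inconclusive = exactly half above 15%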;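 also: 0% = DMSO wells and 100% = Ran loaded with GDP instead of GTP; wells of about 40 µL received 100 nL stock; the first replicate is given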
LANA-H2A inh = blocks KSHV LANA binding to histone H2A/H2B | actives 0.6% (n = 320,000) | inhibition, % (no concentration beside the values) | cell-free LANA-H2A/H2B peptide, fluorescence polarization | AID 2629 | Q9QR71; in the data active = inhibition mostly above about 10%, no sharp cut-off; inactive = mostly below about 6.7%;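 also: stock transfer was 7.5 nL into about 10 µL; 0% = median of vehicle wells and 100% = median of positive control wells; one replicate is shown; the record names a cut of 25% in any replicate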
Calb FLC = affects C. albicans growth with fluconazole. C. albicans CaCi-2 (fluconazole-resistant clinical isolate) + fluconazole, Alamar Blue growth, 48 h. growth inhibition, % (test concentration not listed). actives 0.57% (n = 300,000);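 active = most replicates above 75%; inconclusive = exactly half above 75%; inactive = most below 75%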;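 also: all wells also contain fluconazole at 8 µg/ml as a sub-toxic cotreatment; 0% = median of DMSO wells and 100% = median of geldanamycin control wells; wells of about 8 µL received 7.5 nL stock; the first replicate is given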
* marks the source's active call; other numbers are inactive results; ? = inconclusive; . = not tested or not shown.

SMILES	Beta2AR agonist	UCH37 DUB inh	T cruzi repl	Bfl-1 A1 inh	Beta cell apopt	RanGTP-Impb inh	LANA-H2A inh	Calb FLC
CCOC(=O)N1CCC(N(CCN(C)C)C(=S)Nc2cc(Cl)cc(Cl)c2)CC1	-4	1.4	2	0.2	-12	5.2	-4.3	5
CCOc1ccccc1N1C(=O)CC(Sc2ncccc2C(=O)O)C1=O (configuration not stated)	-4	-1.6	-25	-0.4	-2	0.2	-4.8	10
CCOc1ccc(-c2cc(C(=O)O)c3ccccc3n2)c(OCC)c1	1	-12	8	1.2	2	1.2	4.8	10
CC(=O)N1CCCc2cc(S(=O)(=O)Nc3cccc(C)c3C)ccc21	-2	5.9	14	0.1	-2	0.6	-3.5	-2
CCN(CC)CCCNC(=O)CNC(=O)c1nn(-c2ccc(OC)c(OC)c2)c(=O)c2ccccc12	1	5.3	-8	1.0	-9	2.8	1.5	-1
N/C(=N\OC(=O)c1ccccc1Cl)c1cccnc1	-3	2.8	-14	-8.3	-2	-3.9	-0.8	-19
Cc1cc(OC(=O)c2cc(Br)ccc2Cl)c([N+](=O)[O-])c(=O)[nH]1	3	8.4	4	-0.2	-2	4.4	-5.3	9
Cn1c(NC(=O)c2ccc(S(=O)(=O)N3CCOCC3)cc2)cc(=O)n(C)c1=O	12	2.7	-8	1.1	.	3.1	-6.2	-1
COc1ccccc1-c1nc2cc(Cl)ccc2c(=O)n1O	7	0.6	-7	-1.0	-5	1.5	6.1	9
O=C(O)COc1ccccc1/C=N/Nc1ccc(S(=O)(=O)N2CCOCC2)cc1[N+](=O)[O-]	1	.	-11	-0.7	-2	-2.5	2.8	-9
CC(=O)c1c(C)nc(C)nc1NC(=O)C(C)C	1	0.2	-3	0.2	-4	0.0	-4.0	0
CCC1S/C(=N/N=C/c2ccco2)N(c2ccc(F)cc2)C1=O (configuration not stated)	-9	.	-14	-0.2	4	-2.7	2.8	-8
Cc1nn(C)cc1S(=O)(=O)N1CCN(c2ccccc2)CC1	5	-2.3	-7	-0.3	.	-3.0	-0.7	-2
Cc1sc2nc(CN3CCN(S(=O)(=O)c4cccc5nonc45)CC3)[nH]c(=O)c2c1C	-7	0.7	5	-0.7	7	1.1	0.6	-10
O=C(NCc1cccs1)c1ccc([N+](=O)[O-])cc1Cl	-8	0.8	-4	0.2	-7	1.2	-4.9	-35
CCN(CCNC(=O)C1CCCN(Cc2nc(-c3ccc(OC)cc3)oc2C)C1)c1ccccc1 (configuration not stated)	6	5.8	62*	0.3	0	1.2	-1.2	-21
Cc1cccc(OCC(=O)Nc2cccc(C(=O)NCC(C)C)c2)c1	1	-15	5	-0.4	-9	-1.4	4.5	-10
Cc1cccc2c(N=Nc3ccc(S(=O)(=O)Nc4cccc(Cl)c4)cc3[N+](=O)[O-])c(O)[nH]c12	9	2.1	26	0.0	5	-3.2	-3.3	15
N=c1c(C(=O)NCc2ccc(F)cc2)cc2c(=O)n3ccccc3nc2n1Cc1ccco1	4	.	-6	0.1	2	2.5	5.2	40
Cc1cccc(C)c1NC(=O)Cn1nnnc1N	3	0.5	-5	1.1	-1	0.7	-1.4	5
Cc1ccc(NC(=O)CSc2nnc(Cc3ccccc3)o2)cc1	3	-2.6	4	-0.6	2	-0.8	-7.2	9
NS(=O)(=O)c1ccc(NC(=O)c2ccc(OCC3CCCO3)cc2)cc1 (configuration not stated)	-1	-2.6	.	0.7	-8	.	-2.8	.
Cc1ccn(CCC(=O)N2CCCC(CCC(=O)NCc3ccc(F)c(F)c3)C2)n1 (configuration not stated)	0	0.6	0	1.3	0	0.0	0.3	9
CCN(CC)S(=O)(=O)c1ccc(C)c(NC(=O)CN2CCN(C)CC2)c1	4	-1.0	7	0.9	-6	?	1.8	-2
CN(C)Cc1ccccc1C(O)(c1ccccc1)c1ccccc1	10	3.8	14	0.4	-4	3.6	2.2	-6
Cc1ccc(/C=C/C(=O)c2ccc(C)cc2)cc1	-2	4.7	-9	0.7	-3	-2.5	1.2	21
O=C(CCCn1c(SCC(=O)NCC2CCCO2)nc2ccccc2c1=O)NCC1CCCO1 (configuration not stated)	-4	4.0	.	0.5	-10	.	-1.5	.
Cc1ccc(C(=O)N/N=C\c2ccc([N+](=O)[O-])s2)cn1	-2	.	?	0.4	6	-1.4	-4.2	-5
COc1ccc(OCCSc2ncnc3nc[nH]c23)cc1	10	2.9	-2	-3.2	.	-0.9	-9.0	12
CC(C)c1ccc2oc(=O)cc(CN3CCN(c4ccc(F)cc4)CC3)c2c1	5	2.2	24	-1.0	13	-2.0	0.4	-1
CCOC(=O)N1CCN(Cc2nc3cc(NC(=O)CC)ccc3n2C)CC1	-14	-0.7	-9	0.8	-3	0.6	3.4	-6
Cn1c(SCc2ccccc2F)nnc1-c1cnccn1	4	2.7	2	0.2	-1	-1.0	2.7	9
CC(=O)Nc1cccc(Oc2cc(C#N)c(C#N)cc2N2CCOCC2)c1	-4	2.7	-4	-2.8	-9	2.0	2.9	-14
CCOc1cccc(C(=O)NC(=S)NCc2cccnc2)c1	-16	6.9	0	1.2	-3	-2.2	1.0	-4
O=C(CCC(=O)c1cccs1)NCc1cccnc1	5	-0.7	-9	-0.2	7	3.1	-0.8	-11
CC(C)[C@H](NC(=O)[C@@H]1CSC2c3ccccc3C(=O)N21)C(=O)NC1CCCCC1 (some centres not stated)	9	0.0	-12	0.5	2	-0.7	2.1	1
CN(CC(=O)NCc1ccc(F)cc1)S(=O)(=O)c1ccc2c(c1)n(C)c(=O)c(=O)n2C	-3	-7.9	-12	-0.2	-5	2.6	4.6	-11
Cc1ccc(Nc2nnc(SCC(=O)Nc3ncc(C(F)(F)F)cc3Cl)s2)cc1	-5	0.8	-6	-1.0	-7	2.1	-1.5	3
CCOC(=O)C1=C(COC(=O)Cc2ccc(Cl)cc2)NC(=O)NC1C (configuration not stated)	7	-1.2	.	0.4	-4	.	-0.8	.
C[C@]1(OC(=O)/C=C/c2ccccc2)C[C@@H](O)[C@]2(O)C=CO[C@@H](O[C@@H]3O[C@H](CO)[C@@H](O)[C@H](O)[C@H]3O)[C@@H]21	14	4.7	.	2.1	8	.	-1.2	.
O=C(COC(=O)c1cccc(Oc2ccccc2)c1)NCc1ccco1	2	0.8	-7	-0.4	-6	-1.6	-3.2	-11
CCCCn1c(N2CCC(Cc3ccccc3)CC2)nc2c1c(=O)[nH]c(=O)n2C	2	3.4	37	0.0	-5	-0.8	2.9	-2
CC(C)C(O)(C#CCN1CCCCC1)c1ccccc1 (configuration not stated)	-10	1.9	4	-0.3	-5	-0.2	-6.7	-18
Cc1ccccc1CN1CCN(CC(=O)NCCCN2CCN(c3ccc(F)cc3)CC2)C1=O	2	0.0	14	1.0	2	0.1	0.2	0
CCOC(=O)c1sc(NC(=O)c2c(OC)cccc2OC)nc1C	3	3.4	3	-0.9	-1	-2.5	2.5	-3
COc1ccccc1N1CCN(C(=O)COc2ccc(Cl)cc2)CC1	-1	1.4	9	-0.1	-9	-0.4	5.0	0
COc1ccc(OC)c(NC(=O)c2ccc3nc(-c4ccccc4)c(-c4ccccc4)nc3c2)c1	.	5.7	27	1.9	-1	0.7	2.2	5
O=C(CNC(=O)c1ccc(F)cc1)N/N=C/c1cn[nH]c1-c1ccccc1	6	.	-6	-0.3	1	6.2	-1.6	-15
Cc1ccc2nc(N3C(=O)C(O)=C(C(=O)c4ccco4)C3c3ccc(C)o3)sc2c1 (configuration not stated)	3	.	-7	-0.6	0	6.5	-7.3	?
Cc1[nH]n(-c2ccccc2)c(=O)c1C=Nc1cccc2cccnc12	10	3.6	7	-1.1	24	-1.8	4.1	1
CCc1noc(C)c1C(=O)N(C)CC(=O)Nc1ccc(OC)cc1	-1	2.2	6	0.0	.	-0.4	6.0	-7
O=C(CSc1ccccc1Cl)N1CCC(c2nc3ccccc3s2)CC1	-6	5.7	.	-0.4	-11	1.2	-3.0	-2
COc1ccc(/C=C(\C#N)c2n[nH]c(Cn3cncn3)n2)cc1	0	13	-17	0.4	.	1.7	-8.1	-8
COc1ccc(CCN2C(=O)CC(N3CCN(S(=O)(=O)c4ccccc4)CC3)C2=O)cc1OC (configuration not stated)	3	-1.0	-3	0.0	-1	-4.1	6.0	-1
CC1CCN(C(=O)C2CCN(C(=O)c3ccc(C(C)(C)C)cc3)CC2)CC1	10	0.1	12	0.1	2	2.5	-1.8	-3
O=C(NCc1ccc(F)cc1)C1(S(=O)(=O)c2ccc(Cl)cc2)CC1	-4	-0.3	5	0.9	-4	1.7	-8.5	-1
c1ccc(NNC2=NCCS2)cc1	-2	2.5	-2	-0.7	-7	-0.6	-2.7	7
O=c1cc2c(nn1Cc1ccc(Cl)cc1Cl)-c1ccccc1CC2	-4	1.4	23	0.3	1	-1.7	-0.7	-1
O=C(C(=C1NCCN1)n1cncn1)c1ccccc1	0	-0.3	-12	0.9	-4	0.7	2.7	-21
COc1ccc(OC)c(/C=N/Nc2nncn2/N=C/c2cc(OC)ccc2OC)c1	5	.	-8	-0.6	8	3.4	-1.1	1

Continued.
SMILES	Beta2AR agonist	UCH37 DUB inh	T cruzi repl	Bfl-1 A1 inh	Beta cell apopt	RanGTP-Impb inh	LANA-H2A inh	Calb FLC
O=C(CNC(=O)c1cccc(Br)c1)NCCc1nc2ccccc2[nH]1	5	1.2	6	1.0	-4	-0.7	1.2	23
Cc1ccc(-n2c(C)nc3ncnc(-c4ccccc4)c32)cc1	0	0.3	10	-0.3	3	-0.5	1.3	13
COc1ccc(S(=O)(=O)N(CC(=O)NC2CC2)c2ccc(C)cc2)cc1OC	-5	4.3	-11	?	-7	0.8	-2.4	-13
C=CCSc1nc(C)c(CC=C)c(=O)[nH]1	-6	1.9	8	0.5	1	1.7	-0.1	-27
CC(=O)N/C(=C\c1ccccc1)C(=O)NCc1ccc2c(c1)OCO2	-1	1.9	4	0.4	5	1.8	6.7	-7
CCCCc1cc(=O)oc2cc(OCC(=O)NCCN3CCOCC3)c(Cl)cc12	-6	-42	-8	-0.8	6	4.7	-0.7	3
O=C(NC(c1ccccc1)C(Cl)Cl)c1ccccc1 (configuration not stated)	-3	-0.2	-9	-0.1	-5	-1.5	4.4	9
O=C(Nc1cccc(S(=O)(=O)N2CCOCC2)c1)c1cc(=O)[nH]c2ccccc12	-4	-8.5	.	-0.8	1	.	1.7	.
C=CCc1ccc(OCCCOc2ccc(C)cc2OC)c(OC)c1	-2	1.6	0	0.1	-9	0.1	3.0	0
O=C1CC(=O)Nc2cc(S(=O)(=O)Nc3ccc(Cl)c(C(F)(F)F)c3)ccc2N1	-4	5.7	-14	0.3	-7	0.5	2.1	4
COc1cc(C(=O)OCc2cccc(S(=O)(=O)N3CCOCC3)c2)ccc1OCC(C)C	5	0.3	.	0.3	-9	.	.	.
O=C(O)COc1ccccc1/C=C1\SC(=O)N(Cc2ccc(F)cc2)C1=O	31	3.6	-13	0.5	-6	2.9	-2.0	-4
CCCNC(=O)c1ccccc1NC(=O)c1ccc(CSc2ccccc2)cc1	-15	-2.3	20	-0.1	0	-0.7	-2.1	9

Hits appear at their usual frequency (roughly 4.3% active in at least one column).
